KCNQ2 block: KCNQ2 potassium channel inhibitors, primary screen, cell-based, CHO-K1, FluxOR thallium flux, B-score (AID 2156) | 20 min; stronger effect = lower value; only compounds with negative scores are shown here; some inactives read as strong as hits | 1.1% of 310,000 active | B-score at 10 µM;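 active means fluorescence ratio B-score at most minus 3 library SDs, with starting brightness B-score within 2 library SDs, cut at about -5.5 in these data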
Target sequence (O88943 whole entry, looked up): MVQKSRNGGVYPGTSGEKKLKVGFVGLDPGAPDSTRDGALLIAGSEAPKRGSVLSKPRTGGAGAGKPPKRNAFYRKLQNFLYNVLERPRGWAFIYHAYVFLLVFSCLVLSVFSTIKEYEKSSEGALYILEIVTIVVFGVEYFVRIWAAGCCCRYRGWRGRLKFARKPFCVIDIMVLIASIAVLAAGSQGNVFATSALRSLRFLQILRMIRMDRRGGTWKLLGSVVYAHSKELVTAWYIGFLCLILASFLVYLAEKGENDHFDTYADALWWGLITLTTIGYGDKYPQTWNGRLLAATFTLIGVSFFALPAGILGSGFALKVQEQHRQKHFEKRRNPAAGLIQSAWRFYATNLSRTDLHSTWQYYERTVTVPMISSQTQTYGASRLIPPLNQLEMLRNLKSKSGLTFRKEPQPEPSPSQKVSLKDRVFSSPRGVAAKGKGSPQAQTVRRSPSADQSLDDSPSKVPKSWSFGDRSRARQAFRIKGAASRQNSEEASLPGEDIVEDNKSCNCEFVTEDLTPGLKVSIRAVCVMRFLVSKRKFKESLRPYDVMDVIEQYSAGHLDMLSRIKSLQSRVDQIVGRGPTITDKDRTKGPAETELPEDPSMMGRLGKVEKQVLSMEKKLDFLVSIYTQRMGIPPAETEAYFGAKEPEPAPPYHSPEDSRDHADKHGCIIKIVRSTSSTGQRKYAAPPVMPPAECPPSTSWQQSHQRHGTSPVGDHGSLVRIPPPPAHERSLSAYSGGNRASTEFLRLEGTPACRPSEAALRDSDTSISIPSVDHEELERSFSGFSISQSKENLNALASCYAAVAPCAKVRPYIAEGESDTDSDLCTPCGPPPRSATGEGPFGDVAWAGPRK
KCNQ2 block baseline: recorded beside KCNQ2 block, whose call it bears; B-score; measured here: initial fluorescence intensity artifact check;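 brightness before thallium and not channel activity; 0 = typical well and far values either way flag optical interference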
* marks the source's active call; other numbers are inactive results; i = inactive. This is a subset. The share of hits here may be higher or lower than overall.

SMILES	KCNQ2 block	KCNQ2 block baseline
COc1cccc(CCc2nnc(CCC(=O)NCCc3cccc(C)n3)o2)c1	i	-0.91
CN(C)C(C(=O)NC1CCCCC1)c1ccc(Cl)cc1 (stereo not drawn)	i	-1.2
N#Cc1c(-c2ccccc2Cl)cc(-c2ccccc2)nc1Br	i	-2.6
O=C(NCC1CCCN1S(=O)(=O)c1cccs1)C(=O)Nc1ccc(F)cc1 (stereo not drawn)	i	0.25
CC(/C=N/Nc1nc(C)cc(C)n1)=C\c1ccc(C(C)C)cc1	i	0.66
CCOc1ccc(S(=O)(=O)NC2CC2)cc1	i	-0.31
COc1ccc(N2CCN(C(=O)C3CC(=O)N(c4ccc(C)cc4)C3)CC2)cc1 (stereo not drawn)	i	1.6
Cc1ccccc1NC(=O)c1c([N+](=O)[O-])cnn1C	i	0.23
CN(C)c1ccc(/C=C2\N=C(c3ccc(Cl)c([N+](=O)[O-])c3)NC2=O)cc1	i	-0.65
COC(=O)Nc1sc(C)nc1-c1ccccc1	i	-0.37
O=C1Nc2ccccc2C1Cc1ccc(OC(F)(F)F)cc1 (stereo not drawn)	i	-0.51
Cc1cccc(CSc2nnc([C@@H]3CCCN3)o2)c1	i	0.79
COc1cc(OC)cc(C(=O)Nc2sc3c(c2C(N)=O)CCC3)c1	i	-1.6
O=C(CNC1CCCCCC1)c1cccs1	i	1.2
COc1cc(C(=O)NC(=S)Nc2ccc3c(c2)OCO3)cc(OC)c1OC	i	-0.79

Arranged by length of the SMILES (ascending): part of the list above.
SMILES	KCNQ2 block	KCNQ2 block baseline
O=C(CNC1CCCCCC1)c1cccs1	i	1.2
CCOc1ccc(S(=O)(=O)NC2CC2)cc1	i	-0.31
Cc1ccccc1NC(=O)c1c([N+](=O)[O-])cnn1C	i	0.23
COc1cc(OC)cc(C(=O)Nc2sc3c(c2C(N)=O)CCC3)c1	i	-1.6
COc1cccc(CCc2nnc(CCC(=O)NCCc3cccc(C)n3)o2)c1	i	-0.91

Next section:
SMILES	KCNQ2 block	KCNQ2 block baseline
O=C1CCN(S(=O)(=O)c2ccc(Br)cc2)CCN1	i	0.37
C/C(=N\Nc1ncnc2sc(C)c(C)c12)c1ccccn1	i	5.7
O=C1c2ccccc2CCC12N=NCC2c1ccc(Br)cc1 (stereo not drawn)	i	2.3
CN(C(=O)c1cccc(S(=O)(=O)N2CCCCC2)c1)C1CCS(=O)(=O)C1 (stereo not drawn)	i	0.35
CCCCCOC(=O)NCC(O)c1ccccc1 (stereo not drawn)	i	-0.39
COc1ccc(C(C)=O)cc1COC(=O)c1ccc(OCc2c(C)noc2C)cc1	i	-1.7
CCOC(=O)C(=Cc1cn(C)c2ccc(S(=O)(=O)N(C)C)cc12)C(=O)OCC	i	0.44
CC1c2[nH]c3ccccc3c2C[C@H]2C(=O)N(CCO)CC(=O)N12 (stereo partly drawn)	i	-2.2
O=C(Cn1nc(C(F)F)cc1C1CC1)NCCC1=CCCCC1	i	-2.5
CCNc1oc(/C=C/c2ccc(OCC)cc2)nc1C#N	i	-0.05
[O-][n+]1c(/C=C/c2ccccc2)ccc2ccccc21	i	0.82
O=C(COC(=O)c1n[nH]c2ccccc12)Nc1cccc(S(=O)(=O)N2CCOCC2)c1	i	0.5
CCc1cc(=O)oc2cc(C)cc(OC(C)C(=O)NCCCn3ccnc3)c12 (stereo not drawn)	i	0.59
COc1ccc2c(C)cc(SCC(=O)Nc3nsc(-c4ccc(C)cc4)n3)nc2c1	-6.3*	-0.98*
COc1ccc(C)cc1NC(=O)C1CCN(S(C)(=O)=O)CC1	i	0.01

Sorted by value in KCNQ2 block baseline (high to low): 5 of the compounds above
Compound	KCNQ2 block baseline
[O-][n+]1c(/C=C/c2ccccc2)ccc2ccccc21	0.82
CCc1cc(=O)oc2cc(C)cc(OC(C)C(=O)NCCCn3ccnc3)c12 (stereo not drawn)	0.59
O=C(COC(=O)c1n[nH]c2ccccc12)Nc1cccc(S(=O)(=O)N2CCOCC2)c1	0.5
CN(C(=O)c1cccc(S(=O)(=O)N2CCCCC2)c1)C1CCS(=O)(=O)C1 (stereo not drawn)	0.35
CCCCCOC(=O)NCC(O)c1ccccc1 (stereo not drawn)	-0.39

Further results follow.
SMILES	KCNQ2 block	KCNQ2 block baseline
Cc1c(C(=O)O)sc2nc(CSc3ncc(C(F)(F)F)cc3Cl)[nH]c(=O)c12	i	1.3
O=C(NC1CCCCC1)c1cccnc1Sc1ccccc1Cl	i	-0.58
CCOc1ccc(NC(=O)c2cccc(OC(=S)N3CCOCC3)c2)cc1	i	1
Cc1ccc(S(=O)(=O)CC(=O)NC(C)c2ccccc2)cc1 (stereo not drawn)	i	-0.25
COc1ccc(NC(=O)CSC2=C(C#N)C(c3ccco3)C3=C(CCCC3=O)N2)c(OC)c1 (stereo not drawn)	i	-1.9
Cc1csc(N(C(=O)c2cccc(S(=O)(=O)N3CCCC3)c2)c2ccccc2)n1	i	-1.3
COC(=O)c1ccc(CNC(=O)CNC(=O)c2sc3ccccc3c2Cl)cc1	i	1.2
Fc1cccc(Cl)c1CSc1nnc(CNc2ccccc2)o1	i	1
O=C(C1=C[C@@H]2[C@H]3C(=O)N(c4ccccc4Cl)C(=O)[C@H]3[C@@H](C(=O)c3ccc(Cl)cc3)N2C=C1)c1ccccc1	i	0.37
O=c1[nH]c2cc3c(cc2cc1CN(Cc1cccnc1)C(=S)NCc1ccco1)OCCO3	i	2.4
CCOC(=O)CC(=O)COc1nc2cc3c(nc2o1)CCCC3	i	0.87
COC(=O)c1cn(NC(=O)c2cnccn2)c(=O)c2ccccc12	i	2
CC(C)C1CC(CCN)(Cc2ccccc2)CCO1 (stereo not drawn)	i	0.35
N/C(Cc1cccs1)=N\OC(=O)COc1ccc(Br)cc1Cl	i	-0.07
O=c1oc2ccccc2n1Cc1ccccc1Cl	i	1.2
O=C(CCS(=O)CCC(=O)NCc1ccccc1)NCc1ccccc1	i	-0.49
CC1(C)CN=C(N(C(=O)Nc2ccccc2)c2ccccc2F)S1	i	0.4
CCN(CC)CCNC(C(=O)Nc1ccc([N+](=O)[O-])cc1Br)c1ccccc1 (stereo not drawn)	i	-0.04
CC1CCN(C(=S)c2ccc([N+](=O)[O-])cc2)CC1	i	-1.4
CC(=O)N1CC=C2C(C#N)=C(N)C(C#N)(C#N)[C@H](c3ccoc3)[C@H]2C1	i	1.1
O=C(N/N=C/c1ccccc1F)C(=O)N1CCCCCC1	i	3.1
Cc1cccc(N(CC(=O)N2CCCCCC2)S(C)(=O)=O)c1	i	1.4
CS(=O)(=O)c1ccc(-c2cn3cc(C(=O)O)ccc3n2)cc1	i	0.06
CN(C(=O)COc1ccccc1C(=O)NCCc1ccccc1)c1ccccc1	i	1.4
COc1ccc(CN2CCNC(=O)C2CC(=O)N(C)CC2CCOCC2)cc1C (stereo not drawn)	i	-0.62
O=C(O)c1ccccc1C(=O)Nc1cc(-c2ccccc2)[nH]n1	i	0.06
C=CCn1c(SCc2cccc(F)c2)nc2cc(C(=O)N3CCC(C(N)=O)CC3)ccc2c1=O	i	0.74
CN(C)Cc1cc(C(C)(C)C)cc(C(C)(C)C)c1O	i	1.4
CCCC(=O)Nc1nnc(SCC(=O)N2C(C)CCCC2C)s1 (stereo not drawn)	i	-0.9
C=CCn1c(SCC(=O)/C(C#N)=C(\C)N)nc2sc(C)c(C)c2c1=O	-7.8*	0.78*
Cc1occc1-c1n[nH]c(=S)n1CC(C)C	i	2.5
COCCn1c(C)cc(C(=O)COC(=O)c2c(C)nn(Cc3ccccc3)c2C)c1C	i	-0.09
O=C1CC(c2ccccc2)n2nc(NC(=O)c3cccs3)nc2N1 (stereo not drawn)	i	0.06
O=C1C2C(c3ccccc3)=NN(c3ccccc3)C2C(=O)N1c1ccccc1 (stereo not drawn)	i	0.12
O=C(Nc1ccc(Cl)c(Cl)c1)C1CC(=O)N(c2ccc(Br)cc2)C1 (stereo not drawn)	i	-0.66
C=CCN(C(=O)CC(NC(C)=O)c1ccccc1)c1nc(-c2ccc(S(C)(=O)=O)cc2)cs1 (stereo not drawn)	i	-0.99
COC(=O)C1C(=O)/C(=C(/C)N2CCCC2)C(=O)CC1(C)C (stereo not drawn)	i	-0.92
COc1ccc(Nc2nc3ccccc3n3nnnc23)cc1	i	-1.2
O=C(NC1CCCCCC1)c1ccccc1-c1ccccc1	i	1.5
CCCc1cc(=O)[nH]c(SCC(=O)N2CCC(C(=O)OCC)CC2)n1	i	1.3
Cc1cc(C)c2nc(NC(=O)[C@@H](NC(=O)c3cccc(S(=O)(=O)N4CCOCC4)c3)C(C)C)sc2c1	i	-1.3
CCCCC/C(=N\NC(=O)CCC(=O)NCc1ccccc1)c1ccccc1	i	0.26
Cc1ccc(C(=O)CCC(=O)OCC(=O)N(CC(C)C)c2c(N)n(Cc3ccccc3)c(=O)[nH]c2=O)cc1	i	0.52
O=C(O)CCCNC(=O)/C(=C\c1ccc(Cl)cc1)NC(=O)c1ccc(Br)cc1	i	0.95
CCOc1ccc(N2C(=O)CC(Sc3ccccc3C(=O)O)C2=O)c([N+](=O)[O-])c1 (stereo not drawn)	i	-0.13
COc1ccc(C(=O)/C=C(\N)C(F)(F)F)c(O)c1	i	0.86
COC(=O)C1=C(C)N(Cc2ccco2)C(=O)N[C@H]1c1ccccc1	i	-0.02
C/C(=N\Nc1ccc(Cl)c(C(=O)O)c1)c1cccc2ccccc12	i	-1.1
C[N+](C)(C)CCN(Cc1ccc(Cl)cc1)c1ccccn1	i	-0.52
O=C(NNC(=O)c1sccc1-n1cccc1)c1ccc(F)cc1	i	1.5
O=C(C1=C(O)/C(=C/c2ccc(O)cc2)CCC1)C(F)(F)F	i	-1.9
CCOC(=O)CSc1nc2sc(C)c(C)c2c(=O)n1N	i	0.05
c1ccc(CN(Cc2cccs2)C(c2cccs2)c2nnnn2C2CCCC2)cc1 (stereo not drawn)	-8.2*	2.3*
Cc1ccc(Cn2ccc(=O)c(Cc3c(Cl)cccc3Cl)c2C)cc1	i	-1.2
COc1ccc2ccccc2c1/C=N\NC(=O)c1ccc(C)s1	i	3.9
CCCCn1c(N)c(N(CCOC)C(=O)CSCc2ccccc2C)c(=O)[nH]c1=O	i	0.59
CC(=O)Nc1nccc(-c2cc(-c3ccccc3)no2)n1	i	-2.3
CCN1C(=O)/C(=C\c2ccc(F)cc2)N=C1SCC(=O)NCc1ccco1	i	-0.95
CCCn1c(=O)c(C(=O)Nc2ccccc2C(=O)OC)c(O)c2ccccc21	i	0.06
COC1=CC(=Cc2c(N)n3nc(CC(=O)N4CCOCC4)sc3nc2=O)C=C(OC)C1=O	i	13

Record cards (already shown). Order of values: KCNQ2 block, KCNQ2 block baseline
Profile of COc1ccc2ccccc2c1/C=N\NC(=O)c1ccc(C)s1 : i, 3.9
Profile of C[N+](C)(C)CCN(Cc1ccc(Cl)cc1)c1ccccn1 : i, -0.52

Continuation:
SMILES	KCNQ2 block	KCNQ2 block baseline
COc1ccc(CCNc2oc(COc3ccc(Br)cc3)nc2C#N)cc1OC	i	0.21
Cc1ccc2nc(SCn3nnc4ccccc4c3=O)[nH]c2c1	i	1.4
CCCCNC(C(=O)Nc1cccc(S(=O)(=O)N2CCOCC2)c1)c1ccccc1 (stereo not drawn)	i	0.43
O=C(Cn1nnc(-c2cccs2)n1)NCc1ccco1	i	0.06
Cc1ccc(C(=O)Nc2ccc3c(c2)OCO3)cc1NC(=O)c1ccco1	i	0.14
CC(=O)Nc1ccccc1OCC(=O)NCCc1ccc(Cl)cc1Cl	i	-1.1
O=S(=O)(NCC(c1cccnc1)N1CCN(c2ccc(F)cc2)CC1)c1ccc(F)cc1 (stereo not drawn)	i	0.07
COc1ccc(CNC(=S)Nc2ccc3nc(N4CCN(C)CC4)cc(C)c3c2)cc1	i	1.8
O=C(NCc1nc2ccccc2[nH]1)C1=C[C@@H](c2ccccc2)C[C@@H](OCCCCO)O1	i	-1
O=C1/C(=C\c2ccsc2)N2CCC1CC2	i	-0.05
O=C(CCc1nnc(-c2ccccc2)o1)c1ccc(Cl)cc1	i	-0.18
Cc1nc(S/C(=C/c2ccc(-c3ccc(C(=O)O)cc3)o2)C(=O)O)n[nH]1	i	0.39
Cc1cc(Cl)ccc1OCCCC(=O)N1CCN(C)CC1	i	1.1
COc1ccc(C)cc1S(=O)(=O)N1CCCC(C(=O)NCC2CCCO2)C1 (stereo not drawn)	i	1.2
COCCn1c(C)cc(C(=O)CSc2nc(C)nc3sc4c(c23)CCC4)c1C	i	-0.01
O=C(NCCCN1CCOCC1)C(=O)NCC1OCCN1S(=O)(=O)c1ccc(F)cc1 (stereo not drawn)	i	-0.03
Cc1c(C(=O)N2CCN(c3ncccn3)CC2)sc2nc3n(c(=O)c12)CCCC3	i	-0.89
CC(C)N1CCN(c2ccncc2S(=O)(=O)N2CCOCC2)CC1	i	2.2
Cc1c(C)n(C)c2ccc(C(=O)NCCCN3CCN(c4ccccc4F)CC3)cc12	i	-0.13
N#Cc1c(-c2ccccc2)cc(-c2ccccc2)[nH]c1=O	i	-0.03
Cc1cccc(NC(=O)Nc2ccc(Oc3c(F)c(F)c(F)c(F)c3F)cc2)c1	i	-0.08
CCc1ccc(S(=O)(=O)Nc2nccs2)cc1	i	0.8
CSc1cccc(NC(=O)COc2ccccc2C)c1	i	0.55
Cc1ccc(S(=O)(=O)NCC(=O)N2CCN(c3ccccn3)CC2)cc1	i	-0.23
COc1ccc(/C=C/C(=O)N2CCC(c3ccccc3)C2)cc1 (stereo not drawn)	i	-0.91
COc1cc(C2NC(=S)NC(c3ccccc3)=C2C(C)=O)cc(Br)c1OCC(N)=O (stereo not drawn)	i	-2.1
Cc1nn(CCC(=O)NNC(=S)NCC(C)C)c(C)c1Br	i	0.02
O=C1CC(NS(=O)(=O)c2cccnc2)CN1c1cccc(F)c1 (stereo not drawn)	i	0.6
Cc1cc(C(=O)OCC(=O)Nc2nnc(C(C)C)s2)c2ccccc2n1	i	-0.83
Cc1nnsc1-c1nc2ccccc2[nH]1	i	-0.9

Reprinted at random: two records from the list, in no set order.
SMILES	KCNQ2 block	KCNQ2 block baseline
Cc1nnsc1-c1nc2ccccc2[nH]1	i	-0.9
CCc1ccc(S(=O)(=O)Nc2nccs2)cc1	i	0.8
